ALR inh – blocks human ALR sulfhydryl oxidase activity; P55789; purified ALR, DTT oxidation, H2O2 HRP-luminol luminescence; inhibition, % (no concentration beside the values); 290,000 tested, 3.8% active; AID 485317;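 active means mean and each replicate at 75% or more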;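 further: stock transfer was 7.5 nL into about 7.5 µL; 0% = neutral wells and 100% = wells with inactivated enzyme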
Target sequence (P55789 whole entry, looked up): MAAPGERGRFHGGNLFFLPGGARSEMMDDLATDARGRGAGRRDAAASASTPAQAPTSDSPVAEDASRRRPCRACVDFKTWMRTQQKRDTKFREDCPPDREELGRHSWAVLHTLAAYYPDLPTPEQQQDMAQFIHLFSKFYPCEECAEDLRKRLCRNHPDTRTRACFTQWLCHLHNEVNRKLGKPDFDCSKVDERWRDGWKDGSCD
E coli growth – E. coli growth inhibition | Escherichia coli growth, OD600, 23 h; stronger effect = lower value | OD600 absorbance (test concentration not listed) | 330,000 tested, 0.21% active | AID 1053175;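 active means OD600 absorbance below the run mean of sample wells minus 3.6 SD, in any replicate, cut at about 0.56 in these data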;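 further: stock transfer was 300 nL into about 60 µL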
Beta2AR agonist – human beta-2 adrenergic receptor agonism by FAP | Am2.2-beta2AR cells, FAP receptor internalization, flow cytometry; reference of the scale not given here | 340,000 tested, 0.43% active | AID 504454 | response, % (no concentration beside the values);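 active means response above a set limit, near 3 SD of response in nonfluorescent compounds, cut at about 42% in these data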;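 further: stock transfer was 100 nL into about 11 µL; a reference agonist was the positive control; negative values mostly stem from fluorescent compounds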
HNF4A DNA FP – change in binding of human HNF4 alpha to DNA. activity change, % at 10 µM. HNF4a-FITC DNA binding, fluorescence polarization, 1 h. 360,000 tested, 0.3% active; in the data active means activity change above about 30%, passing the limit was not always enough;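 further: controls were the assay level and a saturating level of protein; the project sought stronger binding though the title names inhibitors; some compounds called inactive have numbers as strong as hits; positive values seem to mean higher polarization but the record does not say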
Target sequence (P41235 whole entry, looked up): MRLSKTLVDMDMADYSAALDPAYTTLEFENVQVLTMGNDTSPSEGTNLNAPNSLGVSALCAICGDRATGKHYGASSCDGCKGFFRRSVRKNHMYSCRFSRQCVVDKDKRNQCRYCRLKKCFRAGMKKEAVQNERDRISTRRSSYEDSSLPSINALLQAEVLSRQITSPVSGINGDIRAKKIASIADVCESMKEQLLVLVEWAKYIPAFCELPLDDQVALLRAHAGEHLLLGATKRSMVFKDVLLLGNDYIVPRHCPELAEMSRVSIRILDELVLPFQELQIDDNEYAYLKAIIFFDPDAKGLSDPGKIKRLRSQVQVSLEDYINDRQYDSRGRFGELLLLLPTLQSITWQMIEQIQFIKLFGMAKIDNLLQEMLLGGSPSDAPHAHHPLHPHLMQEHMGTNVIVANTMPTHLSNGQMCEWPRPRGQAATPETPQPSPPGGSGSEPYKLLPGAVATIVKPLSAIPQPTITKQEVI
FGF22 binding – binders of recombinant human FGF22 by thermal shift; Q9HCT0; SYPRO orange fluorescence; percent of sucrose octasulfate shift, DMSO zero; calls only at 9.99 µM; 340,000 tested, 1.5% active;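 active means melting point raised past a set limit in the mean and every replicate; three in four hits are not shown here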
Target sequence (Q9HCT0 whole entry, looked up): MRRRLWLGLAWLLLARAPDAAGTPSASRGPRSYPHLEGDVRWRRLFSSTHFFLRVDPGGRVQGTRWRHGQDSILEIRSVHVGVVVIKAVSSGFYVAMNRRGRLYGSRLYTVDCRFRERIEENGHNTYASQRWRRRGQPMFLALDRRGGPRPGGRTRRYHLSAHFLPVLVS
UCH37 DUB inh – inhibitors of human deubiquitinating enzyme UCH37; Q9Y5K5; purified proteasome/UCH37, Ub-AMC cleavage fluorescence; inhibition, % (no concentration beside the values); 330,000 tested, 0.33% active;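 active means mean of two replicates above 20%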;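 further: 0% = compound-free wells with enzyme and 100% = wells lacking proteasome; stock transfer was 100 nL into about 20 µL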
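Material: Human UCH37 enzyme supplied as purified proteasome complex | Schedule: 30 min compound-proteasome preincubation then 25 min substrate reaction, room temperature | Detection: AMC fluorescence from Ub-AMC cleavage, excitation 355 nm, emission 460 nm | Benchmarks: Wells without proteasome as full block, compound-free enzyme plus substrate as uninhibited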
LANA-H2B inh – blocks KSHV LANA binding to histone H2A/H2B. Q9QR71. cell-free LANA-H2A/H2B peptide, fluorescence polarization. inhibition, % (test concentration not listed). 320,000 tested, 0.6% active. AID 2629; in the data active means inhibition mostly above about 10%, no sharp cut-off; inactive means mostly below about 6.7%;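 further: stock transfer was 7.5 nL into about 10 µL; 0% = median of vehicle wells and 100% = median of positive control wells; one replicate is shown; the record names a cut of 25% in any replicate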
Active calls of the source: *; i = inactive; x = no result given. Not all compounds are listed; rates above refer to the full screens.

Every second line gives: ALR inh	E coli growth	Beta2AR agonist	HNF4A DNA FP	FGF22 binding	UCH37 DUB inh	LANA-H2B inh
Cc1ccn(CCC(=O)O)n1
 : -4.0	0.705	0.2	-1.6	i	0.5	0.9
O=C(Cc1ccc(Cl)cc1Cl)Nc1cccc(S(=O)(=O)Nc2ccccc2F)c1
 : -6.8	0.726	13.8	-0.7	i	2.1	-3.9
CC[C@H](C)[C@H](NC(N)=O)C(=O)Nc1ccccc1F
 : -0.9	0.728	5.4	3.1	i	-0.1	2.7
COC(=O)c1ccccc1NC(=O)COc1ccc2c(c1)OCO2
 : 1.5	0.688	2.1	-2.0	i	0.1	6.4
Cc1ccc(N2CCN(c3ccc(C)cc3)C2c2cccnc2)cc1
 : x	0.656	0.7	-2.6	i	1.2	-3.8
COCCNC(=S)NNc1ccccc1[N+](=O)[O-]
 : 11.1	0.678	0.0	-2.6	i	3.4	1.2
COc1cc(C=O)ccc1Oc1nc(Nc2ccc(F)cc2F)nc(N2CCOCC2)n1
 : -8.5	0.649	5.7	2.3	x	0.0	-2.0
C[n+]1cccc(O)c1SCc1ccccc1
 : x	0.71	2.4	-4.4	i	1.5	1.9
CCOC(=O)c1c(C)n(C)c2ccc(OC)c(NS(=O)(=O)CC)c12
 : x	0.692	-1.7	-0.6	x	-0.9	2.0
O=C(Cc1ccccc1)NCCCc1ccccc1
 : 0.3	0.756	7.8	-1.5	x	1.9	-0.6
O=C(Nc1ccncc1)Nc1ccc(Cl)cc1
 : -11.4	0.517*	9.1	2.4	i	3.0	-0.1
COCc1cc(=O)n2[nH]c(-c3cccs3)cc2n1
 : -5.7	0.694	-5.8	-3.1	i	-25.2	-3.9
O=C(NCc1ccccn1)C1Nc2ccc(OC(F)(F)F)cc2C2C=CCC12 (centres undefined)
 : 42.0	0.688	-1.4	0.2	x	1.6	1.5
Nc1nc(-c2ccc(Cl)cc2)nn1C(=O)c1cccs1
 : 1.2	0.68	-1.3	-3.5	i	-13.8	1.7
COc1ccc(N2CCN(C(=O)CN3C(=O)COc4ccccc43)CC2)cc1
 : 38.0	0.572	3.3	3.6	i	-0.5	-0.2
CN(C)CCCNc1cc(C(C)(C)C)nc2c(-c3ccccc3)cnn12
 : 99.0*	0.695	37.2	1.7	i	-35.5	1.5
COCCNC(=O)c1ccccc1NC(=O)Nc1ccccc1
 : x	0.609	-8.9	-0.1	i	-0.1	-0.7
CNC(=O)NC(=O)CSc1ccc(S(=O)(=O)N2CCOCC2)cn1
 : 0.7	0.721	5.0	0.0	i	-0.2	-1.4
COc1ccccc1C(C)NCC(=O)Nc1ccccc1C(F)(F)F (centres undefined)
 : 2.9	0.653	8.9	0.7	i	0.6	3.8
O=C(COc1ccc(Br)cc1)N1CCc2ccccc2C1
 : -1.2	0.674	-5.0	-2.9	i	5.6	-5.2
CN(C)/C=C/C(=O)c1ccc(Cl)c([N+](=O)[O-])c1
 : -5.0	0.666	6.7	-3.6	x	14.2	7.1
COC(=O)CC(=O)CSc1nc2c(cc1C#N)CCCCC2
 : 5.7	0.707	-8.2	-0.9	i	-58.4	-4.2
COc1ccc(CN2CCNC(=O)C2CC(=O)NC2CCCCCC2)c(F)c1 (centres undefined)
 : -9.2	0.718	-3.0	1.9	i	2.9	-4.3
O=C(Nc1cccc(-c2ccc3nncn3n2)c1)C(F)(F)F
 : -6.5	0.703	-0.9	-4.1	i	-1.9	-2.7
CC(C)CNC(=S)NNC(=O)c1csc2ccccc12
 : -2.0	0.617	-3.2	-0.5	x	1.0	8.2
Cc1ccc(O)c(Nc2ncnc3ccccc23)c1
 : 29.5	0.657	8.9	-4.3	x	3.3	-0.9
Cc1ccc(N2CCN(S(=O)(=O)c3ccc4oc(=O)ccc4c3)CC2)cc1Cl
 : x	0.712	2.4	-0.3	i	0.5	-3.8
CCOC(=O)N1CCN(C(=O)c2cn(CC)c3ccc(S(=O)(=O)N4CCCC4)cc3c2=O)CC1
 : -16.8	0.697	-2.7	-0.5	x	0.5	0.6
N=c1n(CCN2CCCCC2)c2ccccc2n1CC(O)COc1ccccc1 (centres undefined)
 : -0.6	0.666	1.0	3.4	x	4.5	-2.3
COC(=O)c1c(S(C)(=O)=O)nc(-c2ccccc2)[nH]c1=O
 : 59.7	0.726	14.5	2.2	i	4.7	-3.8
O=c1c2cn(Cc3ccccc3)c3ccccc3c-2nn1Cc1ccc(F)cc1Cl
 : x	0.685	6.9	5.2	i	6.4	x
Cc1ccccc1OCC(O)Cn1c(N2CCN(c3ccccc3)CC2)nc2c1c(=O)[nH]c(=O)n2C (centres undefined)
 : -3.8	0.716	-3.0	1.1	i	4.0	-0.5
Cn1c(N2CCN(C(=O)Nc3ccc(C(F)(F)F)cc3)CC2)nc2ccccc21
 : -7.2	0.716	-18.7	0.4	x	1.2	2.5
O=C(NC1CCN(C(=S)NCc2ccco2)CC1)c1ccc(F)cc1
 : 1.0	0.701	28.3	0.2	x	2.1	0.8
COc1ccc(NC(=O)NCCc2c[nH]c3ccccc23)c(OC)c1
 : 4.9	0.677	-6.2	-1.0	i	1.6	3.9
O=C(CNC(=O)c1ccc2ccccc2c1)OCC(=O)N1CCN(S(=O)(=O)c2ccc3ccccc3c2)CC1
 : -11.0	0.736	-3.6	4.2	i	-0.8	1.5
CCOC(=O)c1nn2c(C(F)(F)F)cc(-c3ccc(OC)cc3)nc2c1Br
 : x	0.696	5.5	4.6	x	-17.7	-2.9
O=C(CCN1C(=O)/C(=C/c2ccccc2)SC1=S)N1CCCCCC1
 : x	0.681	0.2	-2.7	i	1.6	-3.9
O=C(OCc1ccccc1)N(CCF)c1cn(Cc2ccccc2)c(=O)n(Cc2ccccc2)c1=O
 : x	0.683	-5.0	-1.9	i	1.1	x
CC1(C)Cc2nc3sc4c(N(CCO)CCO)nnnc4c3cc2CO1
 : 2.0	0.746	-2.8	-1.5	i	-105.7	-1.8
C=CCn1c(SCn2nnc3ccccc3c2=O)nnc1-c1ccc(Br)cc1
 : 1.0	0.726	-5.9	2.0	x	5.5	4.0
C=CCNC(=O)c1ccc([N+](=O)[O-])c(Cl)c1
 : 68.0	0.722	0.1	2.5	x	1.6	3.3
COc1cccc(C2=NOC(C(=O)NCc3ccco3)C2)c1 (centres undefined)
 : -2.5	0.64	-4.0	-0.5	x	0.3	-1.6
O=C(CN1CCN(c2ccccc2)CC1)Nc1ccc2c(c1)OCCO2
 : 55.3	0.704	0.9	-0.6	i	0.8	x
CCn1c(SCC(=O)c2ccc(O)c(O)c2)nnc1-c1ccc(C)cc1
 : 67.5	0.765	-3.7	-3.7	x	-2.7	2.7
Cc1ccc(C(=O)NCC(=O)Nc2ccc3c(c2)OCCO3)cc1
 : -4.2	0.665	2.5	2.4	i	3.4	3.6
COCCN1CCN(c2cc(-c3ccccc3)nc3cc(-c4cccc(F)c4)nn23)CC1
 : -6.3	0.788	0.5	1.8	x	-176.8	0.9
CC(=O)Nc1ccc(C(=O)NCC(=O)OCc2c(F)cccc2Cl)cc1
 : -8.2	0.706	-6.1	3.1	i	0.5	-1.4
CC1CC(C)(C)NC(=S)N1CCCC(=O)Nc1ccc(Cl)cc1 (centres undefined)
 : 2.1	0.719	-5.3	-4.7	i	4.3	1.5
CCOC(=O)C1C(=O)C=C(c2ccc(OC)cc2)CC1c1ccco1 (centres undefined)
 : 3.9	0.722	7.4	-3.2	x	-1.8	-3.5
CCOC(=O)N1CCC(=NNC(=O)COc2cccc(C)c2)CC1
 : x	0.7	-1.6	0.6	i	0.1	2.9
COc1ccc(CNCCCn2cnc3c(OCc4ccccc4)ncnc32)cc1
 : x	x	3.2	0.9	i	x	x
CCOC(=O)N1CCN(C(=O)C2CCC(CNS(=O)(=O)c3ccc(Cl)cc3)CC2)CC1 (centres undefined)
 : -2.0	0.732	0.2	-0.2	x	-3.5	-0.1
CSc1ccccc1OCc1cc(C(=O)NC(C)CCn2cccn2)no1 (centres undefined)
 : -1.2	0.66	1.8	3.2	i	1.6	-1.6
CCCCNC(=O)Nc1ccccc1CC
 : 22.0	0.646	-4.0	0.1	i	4.0	-0.4
CC(C)Cn1c(N)cc(=O)n(C)c1=O
 : -2.4	0.652	8.9	-2.1	i	1.1	-1.7
O=C(COC(=O)c1cccc(Br)c1)NCc1ccco1
 : -0.9	0.713	1.9	-8.7	i	4.0	3.1
Cn1c(=O)c2c(ncn2CC(=O)Nc2cccc(S(=O)(=O)Nc3ccccc3F)c2)n(C)c1=O
 : -16.2	0.701	-2.2	3.8	x	0.2	6.7
CCOc1ccc(C(=O)N(Cc2ccc(OC)cc2)Cc2cc3cc(OC)ccc3[nH]c2=O)cc1
 : -13.8	0.682	4.7	-3.1	x	-10.9	4.8
COC(=O)CCC(=O)OC1(C)C(=O)C=C2C=C(C3CC3)N(C(CO)CO)C=C2C1=O (centres undefined)
 : -16.6	0.689	9.6	-7.2	i	3.4	-8.0

Going on with the list.
Every second line gives: ALR inh	E coli growth	Beta2AR agonist	HNF4A DNA FP	FGF22 binding	UCH37 DUB inh	LANA-H2B inh
Nc1c(C(=O)Nc2ccccc2F)sc2nc(Cc3ccccc3)cc(C(F)(F)F)c12
 : -4.2	0.727	0.2	9.1	i	-41.5	-23.4
CN(Cc1nccs1)C(=O)c1cc(COc2cccc3cnccc23)on1
 : -45.3	0.688	5.0	1.2	i	-68.3	4.4
O=C(Nc1ccc2c(c1)C(=O)OC2)c1ccc(Cl)cc1
 : -0.7	0.65	-10.5	2.5	i	-2.9	7.8
CCOc1nc(NC(=O)NS(=O)(=O)c2cccc(Cl)c2)nc(-c2ccccc2)n1
 : x	0.637	1.4	2.6	i	1.6	1.0
Cc1ccc(CNC(=O)CCc2c(C)nc3ncnn3c2C)cc1
 : x	0.669	0.5	0.1	x	5.5	1.8
Cc1cc(C)n(-c2ccc(C(=O)OCC(=O)NCc3ccco3)cc2)n1
 : -5.0	0.679	-5.4	0.8	x	4.5	2.0
CCOc1ccccc1CNC(=O)C1CCN(c2nc3ccccc3o2)CC1
 : -11.1	0.677	-4.7	0.5	x	5.2	3.0
C/C(CC(=O)Nc1ccccc1F)=N\NC(=O)Cc1ccc(Cl)cc1
 : -5.1	x	-1.4	3.0	x	x	-2.1
O=C(Nc1ccc2ccccc2n1)c1ccc(Cl)cc1
 : 1.3	0.712	-6.4	-1.1	i	-3.8	5.5
C/C(NC(=O)c1cccs1)=C1\C(=O)C[C@@H]2[C@H]1C2(C)C
 : -1.9	0.72	-6.4	21.4	x	-4.8	7.2
Cc1ccc(C)c(N2CCN(S(=O)(=O)c3ccc(-c4cc(C)no4)s3)CC2)c1
 : -5.2	0.721	-1.3	1.0	i	7.6	-3.7
O=C(NCCN1CCc2ccccc2C1)C1CCN(S(=O)(=O)N2CCC3(CC2)OCCO3)CC1
 : -6.3	0.683	1.7	0.0	i	1.5	-5.8
